Screens (PubChem BioAssay)
Calb FLC: affects C. albicans growth with fluconazole; growth inhibition, % (no concentration beside the values); 0.57% of 300,000 active; C. albicans CaCi-2 (fluconazole-resistant clinical isolate) + fluconazole, Alamar Blue growth, 48 h;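 active = most replicates above 75%; inconclusive = exactly half above 75%; inactive = most below 75%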;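 note: all wells also contain fluconazole at 8 µg/ml as a sub-toxic cotreatment; 0% = median of DMSO wells and 100% = median of geldanamycin control wells; wells of about 8 µL received 7.5 nL stock; the first replicate is given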
RanGTP-Imp inh: inhibitors of RanGTP-importin-beta interaction, primary screen, biochemical, FRET, CFP-Ran, YFP-importin-beta, homogeneous. cell-free CFP-Ran/YFP-importin-beta FRET ratio. inhibition, % (test concentration not listed). 1.1% of 300,000 active;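 active = most replicates above 15%; inconclusive = exactly half above 15%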;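 note: 0% = DMSO wells and 100% = Ran loaded with GDP instead of GTP; wells of about 40 µL received 100 nL stock; the first replicate is given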
T cruzi repl: blocks replication of Trypanosoma cruzi; T. cruzi beta-gal in NIH3T3, luminescence, 90 h; inhibition, % (concentration not given with the values); 1.4% of 300,000 active; AID 1885;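 active = mean inhibition across valid replicates above about 55%, limit read from the data; inconclusive = mean below that limit but half or more replicates reach it; inactive = mean below it, under half of replicates reach it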;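 note: signal also drops with host cell toxicity which is not excluded here; 0% = plate median of DMSO wells and 100% = zero luminescence signal; higher percent means less beta-gal luminescence so fewer parasites; stock transfer was 50 nL into about 50 µL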
LANA-H2A inh: blocks KSHV LANA binding to histone H2A/H2B; cell-free LANA-H2A/H2B peptide, fluorescence polarization; 0.6% of 320,000 active; Q9QR71; inhibition, % (concentration not given with the values); AID 2629; in the data active = inhibition mostly above about 10%, no sharp cut-off; inactive = mostly below about 6.7%;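 note: stock transfer was 7.5 nL into about 10 µL; 0% = median of vehicle wells and 100% = median of positive control wells; one replicate is shown; the record names a cut of 25% in any replicate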
B2AR ag: agonists of human beta-2 adrenergic receptor inducing internalization; 0.43% of 340,000 active; AID 504454; Am2.2-beta2AR cells, FAP receptor internalization, flow cytometry; reference of the scale not given here; P07550; response, % (no concentration beside the values);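 active = response above a set limit, near 3 SD of response in nonfluorescent compounds, cut at about 42% in these data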;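 note: stock transfer was 100 nL into about 11 µL; a reference agonist was the positive control; negative values mostly stem from fluorescent compounds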
Target sequence (P07550 whole entry, looked up): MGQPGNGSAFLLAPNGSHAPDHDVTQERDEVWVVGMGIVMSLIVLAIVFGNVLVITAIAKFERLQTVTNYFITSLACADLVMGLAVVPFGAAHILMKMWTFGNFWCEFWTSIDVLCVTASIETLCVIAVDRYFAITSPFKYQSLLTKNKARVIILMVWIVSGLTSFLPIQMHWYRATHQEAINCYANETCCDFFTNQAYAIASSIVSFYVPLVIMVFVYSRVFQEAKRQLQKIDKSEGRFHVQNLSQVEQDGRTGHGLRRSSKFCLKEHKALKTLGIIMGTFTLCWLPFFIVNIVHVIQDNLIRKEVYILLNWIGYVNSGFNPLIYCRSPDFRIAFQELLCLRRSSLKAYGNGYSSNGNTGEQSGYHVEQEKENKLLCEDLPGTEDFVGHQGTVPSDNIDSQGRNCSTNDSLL
UCH37 inh: human UCH37 deubiquitinating enzyme inhibition; purified proteasome/UCH37, Ub-AMC cleavage fluorescence; inhibition, % (test concentration not listed); 0.33% of 330,000 active; AID 588478;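 active = mean of two replicates above 20%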;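 note: 0% = compound-free wells with enzyme and 100% = wells lacking proteasome; stock transfer was 100 nL into about 20 µL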
Target sequence (Q9Y5K5 whole entry, looked up): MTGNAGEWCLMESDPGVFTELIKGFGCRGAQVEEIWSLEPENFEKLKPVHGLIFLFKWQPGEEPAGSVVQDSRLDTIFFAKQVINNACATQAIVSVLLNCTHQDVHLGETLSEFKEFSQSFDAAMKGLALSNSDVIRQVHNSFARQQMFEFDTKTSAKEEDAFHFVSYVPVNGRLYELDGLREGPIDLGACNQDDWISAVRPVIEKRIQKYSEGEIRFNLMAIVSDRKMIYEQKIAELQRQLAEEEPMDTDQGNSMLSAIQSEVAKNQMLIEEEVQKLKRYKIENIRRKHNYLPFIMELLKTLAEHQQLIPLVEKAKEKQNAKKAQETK
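Schedule: 30 min plus 25 min, room temperature / Material: human UCH37 within purified proteasomes / Technique: AMC fluorescence intensity at 355/460 nm / Buffer or medium: pH 7.4 Tris-HCl (50 mM) with ovalbumin, ATP-MgCl2, DTT / Controls: wells without proteasome as full block, compound-free enzyme plus substrate as uninhibited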
Beta cell apopt: beta cell apoptosis inhibition; 0.8% of 300,000 active; protection from apoptosis, % (concentration not given with the values); INS-1E cytokine-induced death, ATP luminescence, 48 h; percent of positive-control rescue, neutral wells zero;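 active = all replicates at 75% or more, or half of them and the mean; inconclusive = half reach 75% but not the mean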;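 note: 0% = cytokine-treated negative control wells and 100% = positive control rescue; higher means more ATP so stronger rescue from cytokine killing; wells of about 40 µL received 100 nL stock; the first replicate is given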
A1 inh: inhibitors of the anti-apoptotic protein A1, read as caspase activation. MEF A1-2A-BIM cells, Caspase-Glo 3/7 luminescence, 3 h; percent of clofoctol response, vehicle zero. caspase activation, % (test concentration not listed). 0.066% of 330,000 active. AID 2462;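 active = over half of replicate activation scores above 10%, or exactly half above 10 with the replicate mean above 10; inconclusive = replicate mean below 10 yet half the replicates above 10; inactive = over half of replicates below 10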;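 note: wells of about 30 µL received 50 nL stock; many hits fall short of the cut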
Active calls of the source: *; i = inactive; ? = inconclusive; . = not tested or not shown.

The line under a structure holds: Calb FLC	RanGTP-Imp inh	T cruzi repl	LANA-H2A inh	B2AR ag	UCH37 inh	Beta cell apopt	A1 inh
CC(=NCCCNC1CCCCC1)C1=C(O)CC(C)(C)CC1=O
  10	-8.6	11	8.4	-2	-1.7	-4	-0.3
COc1ccccc1-n1c(CNC(=O)COc2ccccc2)n[nH]c1=S
  -2	?	-8	-4.2	2	2.3	-4	-0.1
CCc1c(-c2ccccc2)nc2sc3c(c2c1N)CCCC3
  -4	-3.2	55*	-2.4	12	-3.2	14	0.0
COc1ccc(NC(=O)c2oc3ccccc3c2CSC)cc1S(=O)(=O)N1CCOCC1
  .	.	.	-2.2	-3	1.4	-4	1.9
O=C(NCc1ccccc1C(F)(F)F)C1CC(c2cccc(F)c2)=NO1 (stereo unspecified)
  5	?	-23	1.0	-7	-0.2	-6	-1.5
OCC[C@H]1C[C@@H](O)[C@H](O)[C@]2(CCCO2)O1
  -12	4.8	-12	0.2	-1	4.1	-1	-0.6
O=C(CSc1nc2ccccc2c(=O)n1Cc1ccco1)NCCN1C(=O)CSC1=O
  2	6.2	-3	11	-15	5.0	-1	-0.1
COc1ccc(-c2cc3c(=O)n(CC(=O)NCCCc4ccccc4)ncn3n2)cc1
  3	-3.6	-2	-8.8	-15	3.0	4	.
O=C(c1ccccc1Br)N1CCn2c1nc1ccccc12
  8	4.8	-6	12	-3	-0.1	-1	0.5
COC(=O)c1cc(OCC(=O)Nc2ccc3c(c2)CCC3)cc(C(=O)OC)c1
  .	.	.	-2.4	-3	4.9	-2	1.6
N#CCSc1nccc(-c2cc(Cl)sc2Cl)n1
  -11	-3.7	8	-0.9	-13	0.3	-3	0.0
COC(=O)c1cc(S(=O)(=O)NCC2CCN(Cc3cc(C)ccc3C)CC2)cn1C
  -2	-0.4	9	-1.2	1	2.8	-5	-0.2
Cc1ccc(-n2nnnc2-c2cnc(-c3cccnc3)nc2C(F)(F)F)cc1
  -5	?	4	1.1	-15	2.0	7	-0.6
O=C(Cn1nc2n(c1=O)-c1ccccc1SC2)N/N=C/c1ccncc1
  -7	-0.2	4	-2.8	4	.	4	0.2
COCCNC(=S)N1CCN(c2nc(-c3ccccc3)cs2)CC1
  6	-4.8	4	2.1	-5	6.4	-3	-1.3

The results go on:
The line under a structure holds: Calb FLC	RanGTP-Imp inh	T cruzi repl	LANA-H2A inh	B2AR ag	UCH37 inh	Beta cell apopt	A1 inh
CCCCN(C)C(=O)c1sc2ncn(CC)c(=O)c2c1C
  -1	2.5	-7	-3.4	-4	0.6	-2	0.5
CCN(CC(=O)Nc1ccc(NC(C)=O)cc1)C(=O)C1(c2ccccc2)CC1
  .	.	.	3.9	-3	2.8	4	0.1
O=C(c1ccco1)N1CCN(C(=O)c2cc3ccccc3oc2=O)CC1
  5	1.3	-9	-4.0	5	0.5	-10	-0.6
Cc1ccc2nc3c(cc2c1)c(NC(=O)c1ccco1)nn3CC(C)C
  -5	78*	3	2.3	-9	-37	-1	-0.9
CC1CC(C)CN(CC(=O)NNC(=O)COc2ccc(Cl)cc2)C1 (stereo unspecified)
  .	.	.	1.0	-4	1.9	4	-0.3
CCOc1ccc(S(=O)(=O)Nc2ccccc2C(=O)NCc2ccco2)cc1
  37	-3.1	6	-5.4	0	0.1	-7	0.3
COc1ccc(-c2nc(CSCC(=O)N3CCc4ccccc4C3)c(C)o2)cc1OC
  3	?	-4	9.6	-6	5.6	-3	-0.3
Cc1ccc(C)c(NC(=O)NCc2ccccn2)c1
  7	0.3	-6	-3.1	2	0.9	-7	-0.4
O=S(=O)(c1cccc(F)c1)N1CCCN(c2ccc(C(F)(F)F)cn2)CC1
  3	-2.0	21	-3.6	8	2.3	1	0.8
COc1ccc(NC(=O)C2CCCN2C(=O)OC(C)(C)C)cc1 (stereo unspecified)
  8	?	4	-8.1	-2	0.9	.	-0.4
O=C(OCn1nnc2ccccc2c1=O)C1=COCCO1
  -13	0.6	3	-0.8	0	3.2	.	0.5
CCOC(=O)c1cc2ccccc2n1CCN(CC)CC
  1	-0.8	5	6.2	7	-0.5	1	0.0
COc1cc2c(cc1OC)-c1cc(NC3CCCCCCC3)nc(=O)n1CC2
  23	2.4	33	6.7	-1	-3.0	0	0.7
Cc1cc(C(=O)OCC(=O)c2c(N)n(C)c(=O)n(C)c2=O)c(C)o1
  28	2.8	-7	0.2	-4	0.4	-5	1.3
CCOC(=O)c1cn2cccnc2n1
  7	0.6	1	10	4	-209	0	-0.4

The listing continues.
The line under a structure holds: Calb FLC	RanGTP-Imp inh	T cruzi repl	LANA-H2A inh	B2AR ag	UCH37 inh	Beta cell apopt	A1 inh
COc1cccc(NC(=O)CCNS(=O)(=O)c2cccc3nsnc23)c1
  -16	-3.0	7	8.0	-15	4.6	3	0.4
O=C(Cc1n[nH]c(=O)c2ccccc12)N1CCN(c2ccc(F)cc2)CC1
  -18	1.1	-3	-3.4	9	2.6	-3	0.4
CCN(CC)S(=O)(=O)c1ccc(-c2nnc(SCC(=O)Nc3nc(C)cs3)o2)cc1
  -30	-4.2	-20	-0.3	0	3.9	5	2.2
CCCn1nc(C(=O)OCC(=O)Nc2cccc(S(N)(=O)=O)c2)c2ccccc2c1=O
  -6	1.0	-7	5.3	-3	0.2	-17	0.4
O=C(c1c[nH]c(C(=O)C(Cl)(Cl)Cl)c1)c1ccccc1F
  -7	-0.7	-12	1.8	11	4.0	-21	0.6
Cc1c(C)c2c(OCC(=O)NC3CC3)cc3c(c2oc1=O)CCC(C)(C)O3
  -2	3.8	20	-11	-13	i	4	-1.1
CCOC(=O)C1=C(C)OC(N)=C(C#N)C1c1cc2ccccc2nc1N1CCCCC1 (stereo unspecified)
  11	8.4	-1	2.0	.	-32	-9	-0.4
CCNC(=O)N(CC)C[C@H]1N[C@@](Cc2ccccc2)(C(=O)OC)[C@H]2C(=O)N(Cc3ccccc3)C(=O)[C@@H]12
  .	.	.	.	4	-2.9	-6	-1.0
CCC(C)NC(=O)C(CCSC)NC(=O)c1ccccc1 (stereo unspecified)
  -3	-2.0	-1	0.8	-2	1.5	0	0.6
Cc1ccc(C(C)C)c(OCC(=O)NNC(=O)Cc2ccc(S(=O)(=O)N3CCOCC3)s2)c1
  .	.	.	0.0	5	-2.3	-2	-0.1
CCN(CC)CCNC(=O)CCn1nc(-c2ccc(Cl)cc2)ccc1=O
  2	1.8	-17	-9.5	2	4.1	.	0.4
O=C(O)c1cccc(N2C(=O)c3ccc(C(=O)c4cccc([N+](=O)[O-])c4)cc3C2=O)c1
  4	-0.1	-12	5.8	-9	1.0	-8	-0.2
CC(=O)Nc1cccc2c1C(=O)N(c1ccc(OC(C)=O)cc1)C2=O
  12	.	-13	2.5	-8	0.4	-3	1.3
COc1ccc(C2SCC(=O)N2CCCN(C)C)cc1 (stereo unspecified)
  0	4.4	7	-2.9	0	34*	-1	0.0
CC(C)N(CCNC(=O)c1ccc(OCC2CCCO2)cc1)C(C)C (stereo unspecified)
  -2	-5.1	2	-0.8	-10	6.5	-1	-0.6

Carrying on:
The line under a structure holds: Calb FLC	RanGTP-Imp inh	T cruzi repl	LANA-H2A inh	B2AR ag	UCH37 inh	Beta cell apopt	A1 inh
CC(CO)N1CCS(=O)(=O)CC1 (stereo unspecified)
  -8	3.5	-1	-2.7	4	0.6	0	-1.8
Cc1ccc(CN2CC(C(=O)Nc3ccc(S(=O)(=O)N4CCCCC4)cc3)CC2=O)cc1 (stereo unspecified)
  -3	5.0	31	1.4	4	2.7	-3	0.1
Cc1ccccc1N1CCN(C2CCCN(C(=O)CCN3CCCCO3)C2)CC1 (stereo unspecified)
  -1	1.2	-1	2.5	2	2.9	.	0.5
Cc1c(Cl)cccc1NC(=O)C1NC(=O)CC1c1ccccc1 (stereo unspecified)
  9	-3.0	-12	-4.7	5	4.1	-4	-1.9
CCc1ccc(N2CC(C(=O)NCc3ccc4c(c3)OCO4)CC2=O)cc1 (stereo unspecified)
  -31	2.1	0	1.9	2	3.2	-10	-0.2
OC1(C#CCN2CCCC2)CCCCC1
  5	5.0	-6	0.1	-4	3.7	.	0.3
CCOC(=O)CC(=O)CSc1ncnc2c1nnn2-c1ccc(OC)cc1
  3	-2.8	-15	-0.1	2	5.7	-6	-2.9
O/N=C/c1ccccc1OCc1ccccc1Cl
  -3	?	9	5.7	-3	.	1	0.1
COc1cc2nc(CN(C)Cc3ccc(Cl)cc3)[nH]c(=O)c2cc1OC
  -3	-3.3	-3	2.5	-5	-2.8	-9	-0.5
Cc1cc(C)cc(C(=O)NC(CC(N)=O)c2ccc(N3CCC(Br)CC3)c([N+](=O)[O-])c2)c1 (stereo unspecified)
  -2	0.9	-6	-4.2	-4	5.1	-11	-0.6
Cc1ccc(NC(=O)C(C)N2CCN(C)CC2)cc1S(=O)(=O)N1CCOCC1 (stereo unspecified)
  .	.	.	-2.8	-1	-0.7	-2	2.5
CCOc1cccc(OCCOCCN(C)C)c1
  -2	-4.3	9	2.3	7	4.8	-6	-0.7
CS(=O)(=O)N(CC(=O)Nc1cccnc1)c1ccc2c(c1)OCO2
  -1	2.0	0	1.2	-3	0.9	-5	-0.6
CCOC(=O)C1=C(c2ccccc2)Nc2ncnn2C1c1cccc(OC)c1OC (stereo unspecified)
  -2	0.9	12	-1.3	2	3.0	1	0.4
CCCN1CCN(C(=O)CN2C(=O)CC(C)(C)S(=O)(=O)c3ccccc32)CC1
  0	3.4	-14	5.5	-7	3.2	-10	0.6

Four compounds from above, sorted by count of non-hydrogen atoms, largest number first.
The line under a structure holds: Calb FLC	RanGTP-Imp inh	T cruzi repl	LANA-H2A inh	B2AR ag	UCH37 inh	Beta cell apopt	A1 inh
CCOC(=O)C1=C(c2ccccc2)Nc2ncnn2C1c1cccc(OC)c1OC (stereo unspecified)
  -2	0.9	12	-1.3	2	3.0	1	0.4
Cc1ccc(NC(=O)C(C)N2CCN(C)CC2)cc1S(=O)(=O)N1CCOCC1 (stereo unspecified)
  .	.	.	-2.8	-1	-0.7	-2	2.5
CCOC(=O)CC(=O)CSc1ncnc2c1nnn2-c1ccc(OC)cc1
  3	-2.8	-15	-0.1	2	5.7	-6	-2.9
CCOc1cccc(OCCOCCN(C)C)c1
  -2	-4.3	9	2.3	7	4.8	-6	-0.7

(continued)
The line under a structure holds: Calb FLC	RanGTP-Imp inh	T cruzi repl	LANA-H2A inh	B2AR ag	UCH37 inh	Beta cell apopt	A1 inh
COc1ccc(N2CCN(C3CCCN(C(=O)CN4CCCCC4=O)C3)CC2)cc1 (stereo unspecified)
  7	5.2	-2	-0.2	2	-1.1	3	-0.1
N#CCCn1cc(C(=O)N2CCCCC2)c(-c2ccc([N+](=O)[O-])cc2)n1
  -8	1.8	-9	-1.2	-2	5.6	-3	-0.3
O=C(OCc1cccc(C(F)(F)F)c1)c1ccc[nH]c1=O
  32	2.6	-15	4.0	1	-3.4	-7	0.4
CC(=O)N1CCN(c2ccc(NS(=O)(=O)c3ccc(C)cc3)cc2)CC1
  -3	0.2	-4	-3.3	-4	2.1	2	-0.1
Cc1ccc(-c2nc(CS(=O)(=O)CC(=O)NCc3ccc4c(c3)OCO4)c(C)o2)cc1
  -38	-4.9	3	-6.4	-9	2.5	-5	0.0

No enrichment for hits; about 4.3% have a hit in one of these screens.
